Compound activity (PubChem)
TAR Tat displ: HIV-1 TAR-Tat binding disruption; HIV-1 TAR RNA, Tat peptide displacement FRET; active compounds read high; actives 0.6% (n = 100,000); z-score (test concentration not listed);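 further: score is relative to mean and SD of negative controls; some compounds called inactive have numbers as strong as hits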
CDC25B-CDK2 inh: human CDC25B-CDK2/CyclinA binding inhibition | actives 0.72% (n = 94,000) | z-score (concentration not given with the values) | P30305+P24941 | HTRF CDC25B-CDK2/CyclinA binding, anti-His/anti-Flag; active compounds read high | AID 1259370;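 further: score is relative to mean and SD of negative controls; strong numbers were not always called active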
Starred values were filed as active, the others as inactive; / = no result given.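 How the source made its calls: active means z-score from 3 up in half or more of its runs; inactive means the rest.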

The line under a structure holds: TAR Tat displ, CDC25B-CDK2 inh
CC(=O)Nc1nc(C23CC4CC(CC(C4)C2)C3)cs1
 : /, -0.63
O=C(c1cccnc1)N(c1ccc2oc(=O)sc2c1)S(=O)(=O)c1ccc(F)cc1
 : 2.1, -2.1
O=C(CSc1nc(-c2ccccc2F)nc2cc(=O)[nH]n12)Nc1ccc2c(c1)OCCO2
 : 1.6, /
Cc1nc2ncnn2c(C)c1CCC(=O)N1CCN(C(=O)c2ccco2)CC1
 : -1.4, -1.3
CC1(C)C(=O)OC(C(=O)c2ccc(F)cc2)C(C)(C)C1=O (centres undefined)
 : /, -1.2
CCSc1nnc2c(n1)OC(c1ccc(C(=O)O)cc1)Nc1ccc(Br)cc1-2 (centres undefined)
 : -1, 1.5
COc1ccccc1NC1CCCCC1NS(=O)(=O)c1ccc(Cl)cc1 (centres undefined)
 : 3, 0.79
O=C(Cc1c(C(=O)O)[nH]c2ccc(Cl)cc12)Nc1ccc(F)c(Cl)c1
 : /, -1
O=C1c2[nH]nc(-c3ccccc3O)c2C(c2ccccc2F)N1CCO (centres undefined)
 : 0.98, -0.32
COC(=O)c1sccc1S(N)(=O)=O
 : 2.5, -1.5
CCN1C(=O)C2(c3ccccc31)C(C(=O)Nc1ccc(F)c(F)c1)CC1CSCN12 (centres undefined)
 : 0.31, /
COC(=O)c1sccc1-c1ccc(/C=N/OCc2cc(F)cc3c2OCOC3)o1
 : /, -0.78
COc1ccc(OC)c(CN2CCc3nc(Nc4cc(OC)ccc4OC)ncc3C2)c1
 : 2.2, /
CCCCN1C(=O)c2c(NC(C)=O)c3cc(F)ccc3n2CC1(C)C(=O)NCCC(C)C (centres undefined)
 : 2, /
COC(=O)CNCC(=O)OC
 : /, 0.02
O=C(CCc1nnc2ccc(NCc3ccco3)nn12)NCc1ccc(F)cc1
 : 1.4, /
Cc1ccc2c(c1)Cc1c(nc(-c3ccc(O)cc3)[nH]c1=O)O2
 : -0.21, 0.38
O=C1CCSc2ccc(S(=O)(=O)Nc3cccc4c3CCCC4)cc2N1
 : 1.9, /
O=C(CCCNC(=O)Cn1cnc2sc3c(c2c1=O)CCCC3)NCC1COc2ccccc2O1 (centres undefined)
 : 2.1, -0.07
O=C(Nc1ccc2c(c1)OCCO2)C1CCN(C(=O)c2cnn(-c3ccccc3)c2-n2cccc2)CC1
 : 0.19, -2.2
Cc1nn(C)c(C)c1CNC(=O)c1sc2ncccc2c1-n1cccc1
 : 0.49, /
CSc1nc(NCCOC(C)=O)c(C#N)c(-c2ccccc2)n1
 : 1.4, -1.4
CCOC(=O)c1ccc(-n2c(=S)[nH]c3ccccc32)cc1
 : /, 0.22
C[N+]1(CCS)CCCCC1
 : /, -1.7
COc1ccc(C2=NS(=O)(=O)c3cc(S(=O)(=O)N4CCOCC4)ccc3N2)cc1
 : 0.09, /
COc1ccccc1CC(=O)Nc1ccc2ccccc2n1
 : /, -1.6
CCn1c(=O)c2cc(C(=O)N(CCC(C)C)Cc3ccco3)sc2c2ccccc21
 : 1.3, -1.4
COc1ccc(C(=O)c2cn(Cc3ccccc3)c3cc4c(cc3c2=O)OCCO4)cc1OC
 : 0.55, -0.42
O=C1c2cccnc2C(Nc2cccc(Cl)c2)N1Cc1cccs1 (centres undefined)
 : 1.9, /
CN(C)c1ccc(C(CNS(=O)(=O)c2ccc(Cl)cc2)N2CCOCC2)cc1 (centres undefined)
 : 1.3, /
COc1ccc(NC(=O)CSc2nncn3c2cc2occc23)cc1OC
 : -1.8, /
CS(=O)(=O)/C(C#N)=C/c1cccn1S(=O)(=O)c1ccccc1
 : /, -1.9
CC1CCC(C(C)C)C(OCC(O)CNC(C)C)C1 (centres undefined)
 : -0.84, 0.93
CN(Cc1ccccc1)C(=O)Nc1noc2c1COc1ccccc1-2
 : 1.1, /
CCc1nn(CC(=O)NCCN2CCCCC2C)c(=O)c2cc3sccc3n12 (centres undefined)
 : -0.41, -0.03
O=C(NCc1cccc(Br)c1)NC1COc2ccccc2C1 (centres undefined)
 : 1.2, /
CC1CCc2nc3ccc(S(=O)(=O)N4CCC(C(=O)O)CC4)cc3c(C(=O)O)c2C1 (centres undefined)
 : -7.9, /
O=C(NCC1CCCO1)c1nnc(-c2cccnc2)o1 (centres undefined)
 : 2.1, -1.4
CS(=O)(=O)N1CCN(c2ncnc3c2CC(=O)N3)CC1
 : -0.61, 1.2
O=C(Nc1ccc2nc3n(c(=O)c2c1)CCCCC3)c1ccc([N+](=O)[O-])o1
 : -2.2, -0.61

Part of the list above, reformatted.
COc1ccccc1CC(=O)Nc1ccc2ccccc2n1
  TAR Tat displ: /
  CDC25B-CDK2 inh: -1.6
CCn1c(=O)c2cc(C(=O)N(CCC(C)C)Cc3ccco3)sc2c2ccccc21
  TAR Tat displ: 1.3
  CDC25B-CDK2 inh: -1.4

Remaining list, next part
The line under a structure holds: TAR Tat displ, CDC25B-CDK2 inh
CN(CCCC(=O)O)S(=O)(=O)c1ccc2c(c1)Cc1cc(S(=O)(=O)N(C)CCCC(=O)O)ccc1-2
 : /, -0.29
CSc1nc2n(n1)C(=O)CC(C)(C)N2
 : 1.2, 0.93
CC1CCCCC1NC(=O)C1(C)Cn2c(cc3occc32)C(=O)N1C1CCCCC1 (centres undefined)
 : 3, /
Cc1ccc(N2C(=O)C3N=NN(CC(=O)Nc4ccc5c(c4)OCO5)C3C2=O)cc1C (centres undefined)
 : 0.71, /
COC(=O)CC1=NN(c2nc(C)cc(C)n2)C(=O)C1
 : 1.8, -4.1
CCC(C)C(NC)C(=O)O (centres undefined)
 : 0.53, /
CC(=O)Oc1ccc(C2OC(c3cccc(Br)c3)=NN2C(C)=O)cc1OC(C)=O (centres undefined)
 : 3.6, /
O=C(Cc1ccccc1)Nc1nn2c(-c3ccccc3)nnc2s1
 : 1.4, -1.3
O=C(Nc1ccccc1F)c1cc2ccc3cccnc3c2[nH]1
 : 16, /
COc1ccc(-c2noc(-c3nnn(-c4cc(Cl)c(OC)cc4OC)c3C)n2)cc1
 : 1.1, /
CCCCc1ccc(-c2nc(-c3cccnc3)no2)cc1
 : 0.48, /
Clc1ccc(-c2noc3ncnc(NCCc4ccsc4)c23)cc1
 : -0.05, /
Brc1cccc(CN2CCc3nc(N4CCN(c5ccccc5)CC4)ncc3C2)c1
 : -1.2, /
Cc1ccccc1C(=O)Nc1c(C)nc2ccccn2c1=O
 : 0.67, /
O=C(NCc1nnnn1-c1ccccc1)Nc1ccc(Cl)cc1
 : 1.5, /
COc1ccc(CCNc2c(-c3ccc4c(c3)OCC(=O)N4)c(=O)c2=O)cc1OC
 : -0.29, /
O=C1c2ccccc2-c2onc3c(N4CCN(c5ccccn5)CC4)cc(N4CCOCC4)c1c23
 : -0.61, -0.3
CCCCOC(=O)C1=C(C)NC2=C(C(=O)CC(C)(C)C2)C1c1ccccc1OCC (centres undefined)
 : 0.9, -0.57
O=C(Nc1nc(CC(=O)N2CCN(C(=O)c3ccco3)CC2)cs1)C1CC1
 : 0.19, /
COC(=O)c1cc(-c2ccc(S(=O)(=O)NCc3ccc4c(c3)OCO4)cc2)c(C(F)(F)F)s1
 : /, -1.3

Arranged by SMILES length (rising): some entries from above
The line under a structure holds: TAR Tat displ, CDC25B-CDK2 inh
CCC(C)C(NC)C(=O)O (centres undefined)
 : 0.53, /
O=C(NCc1nnnn1-c1ccccc1)Nc1ccc(Cl)cc1
 : 1.5, /
O=C1c2ccccc2-c2onc3c(N4CCN(c5ccccn5)CC4)cc(N4CCOCC4)c1c23
 : -0.61, -0.3

Retrieved one by one from the entries so far, seven records:
The line under a structure holds: TAR Tat displ, CDC25B-CDK2 inh
CS(=O)(=O)N1CCN(c2ncnc3c2CC(=O)N3)CC1
 : -0.61, 1.2
CC(=O)Nc1nc(C23CC4CC(CC(C4)C2)C3)cs1
 : /, -0.63
O=C(Cc1ccccc1)Nc1nn2c(-c3ccccc3)nnc2s1
 : 1.4, -1.3
Cc1nc2ncnn2c(C)c1CCC(=O)N1CCN(C(=O)c2ccco2)CC1
 : -1.4, -1.3
COC(=O)c1cc(-c2ccc(S(=O)(=O)NCc3ccc4c(c3)OCO4)cc2)c(C(F)(F)F)s1
 : /, -1.3
CCc1nn(CC(=O)NCCN2CCCCC2C)c(=O)c2cc3sccc3n12 (centres undefined)
 : -0.41, -0.03
COc1ccccc1CC(=O)Nc1ccc2ccccc2n1
 : /, -1.6

The list continues:
The line under a structure holds: TAR Tat displ, CDC25B-CDK2 inh
COC(=O)C1=C(C(=O)OC)SC(=C2C(=S)C(C)(C)N(C(=O)C3CC3)c3ccccc32)S1
 : -0.56, 0.05
Cn1c(=O)c2c(-c3ccc(Cl)cc3)n3c(c2n(C)c1=O)C(c1ccccc1O)OCC3 (centres undefined)
 : 0.95, -1.5
N#Cc1c(NC(=O)c2cc3ncc(Br)cn3n2)sc2c1CCCC2
 : 7.3*, 0.64
COC(=O)COc1ccc2c(c1)oc(=O)c1ccccc12
 : /, 0.02
Cc1sc2ncnc(SCC(=O)c3ccc(Cl)cc3)c2c1C
 : -0.59, -4
COc1ccc(C2Nc3ccccc3-c3cc(C)nn32)cc1 (centres undefined)
 : 1.1, -0.44
O=C(CSc1nc(-c2cccc(Cl)c2)nc2cc(=O)[nH]n12)Nc1ccc2c(c1)OCO2
 : 0.71, /
CCSCCOC(=O)C1=C(C)NC2=C(C(=O)CC(c3ccccc3)C2)C1c1ccccc1F (centres undefined)
 : 1.9, 0.59
O=C(NC1CC1)c1ccc2c(c1)CCN2S(=O)(=O)c1ccc(Br)cc1
 : 2.3, -1.3
O=C(N1CCN(c2ccccc2F)CC1)C1(c2cccs2)CCOCC1
 : 1.8, /
c1ccc2c(c1)nc1n2CN(CCCN2CCOCC2)CN1
 : 0.79, -0.29
C=C(C)[C@H]1CC=C(C(=O)O)CC1
 : 1.4, /
COC(=O)c1sccc1NC(=O)c1cn2c3c(ccc(Cl)c3c1=O)OC(C)C2 (centres undefined)
 : -0.05, /
O=C(NC1CC1)c1ccc2c(c1)NC(=O)C(CS(=O)(=O)Cc1ccc(F)cc1)N2 (centres undefined)
 : -7.8, /
O=C(NCc1ccccn1)NCc1noc2ccccc12
 : 0.66, /
COc1ccc(C(=O)c2cnc3ccc(OC)cc3c2N2CCN(C)CC2)cc1
 : -0.43, -0.27
CCOC(=O)Cn1c(=O)oc2cc(S(=O)(=O)NCCC(C)C)ccc21
 : /, -1.8
CCC(=O)N1c2ccccc2CC1C(=O)NCCN(C)C1CCCCC1 (centres undefined)
 : 1.5, /
S=C1CC(c2cccs2)=Nc2ccccc2N1
 : 1.4, -0.3
Cc1cc2c(cc3n2CC(C)(C(=O)NC2CCCCC2)N(Cc2ccco2)C3=O)o1 (centres undefined)
 : 3, /
CC(C)n1c(SCC(=O)Nc2ccc(F)cc2)nc2c(oc3ccccc32)c1=O
 : -1, -1.2
O=C(C1CCN(c2ccc(N3CCOCC3)nn2)CC1)N1CCN(c2ccc(F)cc2)CC1
 : /, -2
Cc1cc(C)c(-c2c(N3CCN(C)CC3)c(=O)c2=O)cc1C
 : 0.08, /
COCc1cc(C)nc(OCC2=NN(C(C)=O)C(c3ccc(OC)cc3)O2)c1C#N (centres undefined)
 : 0.85, /
Nc1cc2c(=O)c3cc(Cl)cc(Cl)c3[nH]c2c2c1C(=O)c1ccccc1C2=O
 : /, 10*
CCOc1ccccc1C1C2=C(CCCC2=O)Nc2nc(SCc3ccc(C(=O)O)cc3)nn21 (centres undefined)
 : -1.6, -1.3
Cc1ccsc1CN(C(=O)c1ccco1)C1CCS(=O)(=O)C1 (centres undefined)
 : -1.2, -1.5
Nc1cc(=O)nc(SCC(=O)Nc2ccc(F)cc2)n1-c1ccccc1Cl
 : -2.3, -0.64
CCOC(=O)C/C(=N\NC(N)=O)C(F)(F)F
 : /, -0.15
CCOc1ccc(C2=C/C(=C/c3cc(OC)c(OC)cc3[N+](=O)[O-])C(=O)O2)cc1
 : /, -3.7
CCc1nnc(NC(=O)Cn2ncc3c2-c2ccccc2OC3)s1
 : 0.69, -0.47
O=C(CS(=O)(=O)c1cccc2nsnc12)N1CCN(c2ccccc2F)CC1
 : 0.85, /
Cc1[nH]c2c(C)cccc2c(=O)c1CN1CCCC(C)C1 (centres undefined)
 : /, 0.1
O=C(Nc1ccccc1C(=O)c1ccccc1)c1ccc(Cl)cc1
 : /, -0.06
Cc1ccc(N2C(=O)N(Cc3cc(=O)n4ccccc4n3)c3ccccc3S2(=O)=O)cc1F
 : 0.4, /
COC(=O)COc1ccc2c3c(c(=O)oc2c1)CCCC3
 : /, -2.3
Cn1cnc(S(=O)(=O)Nc2ccccc2Cl)c1
 : 1.7, /
Cc1nc(N2CCCC2)[nH]c(=O)c1CCC(C)C
 : 0.56, -1.5
CC1=C(c2ccc(F)cc2)S(=O)(=O)NC1=NC(C)(C)C
 : -0.11, /
COCCCN1C(=O)c2c(NC(C)=O)c3cc(F)ccc3n2CC1(C)C(=O)NC1CCCC1 (centres undefined)
 : 2.7, /
CSc1cccc(NS(=O)(=O)c2ccc(-c3coc(C)n3)cc2)c1
 : -0.07, /
CCOc1ccc(C2C=C(C(=O)O)Nc3nnnn32)cc1OC (centres undefined)
 : 0.69, /
O=C1CSC(c2ccccc2Br)N1c1ccc2ccccc2c1 (centres undefined)
 : -0.45, /
CC(C)c1onc(C(=O)NCc2cccs2)c1[N+](=O)[O-]
 : 1.4, -1.5
CCS(=O)(=O)C(=C1NCC(c2ccccc2)O1)S(=O)(=O)CC (centres undefined)
 : /, -1.2
COc1ccc(-c2noc(-c3cc4c(COC(C)=O)cnc(C)c4oc3=O)n2)cc1
 : -1.1, -1.8
COCCN1C(=O)c2[nH]nc(-c3c(C)cc(C)cc3O)c2C1c1ccc(OC)c(OC)c1 (centres undefined)
 : 1.4, -1.3
